# Bioassay records as filed in PubChem.
# VACV E9 pol inh: vaccinia E9 polymerase processive synthesis inhibitors, primary screen, biochemical, absorbance; Vaccinia virus DNA polymerase (E9) processive complex; in vitro processive DNA synthesis, absorbance read-out; active compounds read low; some inactives read as strong as hits; normalized absorbance, % (test concentration not listed); 0.94% of 46,000 active;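 active means replicate mean up to 90% and picked by the depositor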;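 further: 100% = median of the test wells of a plate; 100 nL library stock went into each well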
# * hit, by the source's call; & = joins results of further samples. This is a subset; count on the stated rates, not on these rows.
compound,VACV E9 pol inh
CCN(CC)CCOC(=O)c1ccc(N)cc1,99.8
COc1ccc(C2CNC(=O)C2)cc1OC1CCCC1 (stereo not drawn),98.1
O=C(O)CCC(=O)c1ccc(-c2ccccc2)cc1,99.1
CCCCNc1ccc(C(=O)OCCN(C)C)cc1,100.5
CCOC(=O)[C@H](CCc1ccccc1)N[C@@H](C)C(=O)N1Cc2ccccc2C[C@H]1C(=O)O,99.7
CN1CCCN=C1COC(=O)C(O)(c1ccccc1)C1CCCCC1 (stereo not drawn),100.5
CC[C@@H]1C(=O)OC[C@@H]1Cc1cncn1C,99.1
CC1Cc2ccccc2N1NC(=O)c1ccc(Cl)c(S(N)(=O)=O)c1 (stereo not drawn),99.9
COc1cc2ncnc(Nc3cccc(Cl)c3)c2cc1OC,99.7
Cc1ccc(N(CC2=NCCN2)c2cccc(O)c2)cc1,99.3

# Overlap with the part before: eight compounds, then new ones.
compound,VACV E9 pol inh
O=C(O)CCC(=O)c1ccc(-c2ccccc2)cc1,99.1
CCCCNc1ccc(C(=O)OCCN(C)C)cc1,100.5
CCOC(=O)[C@H](CCc1ccccc1)N[C@@H](C)C(=O)N1Cc2ccccc2C[C@H]1C(=O)O,99.7
CN1CCCN=C1COC(=O)C(O)(c1ccccc1)C1CCCCC1 (stereo not drawn),100.5
CC[C@@H]1C(=O)OC[C@@H]1Cc1cncn1C,99.1
CC1Cc2ccccc2N1NC(=O)c1ccc(Cl)c(S(N)(=O)=O)c1 (stereo not drawn),99.9
COc1cc2ncnc(Nc3cccc(Cl)c3)c2cc1OC,99.7
Cc1ccc(N(CC2=NCCN2)c2cccc(O)c2)cc1,99.3
CNCCCN1c2ccccc2CCc2ccccc21,95.1
O=C1OC(Nc2ccc(S(=O)(=O)Nc3ccccn3)cc2)c2ccccc21 (stereo not drawn),99.4
CCOC(N)=O,89.4
CCn1cc(C(=O)O)c(=O)c2cnc(N3CCNCC3)nc21,97.7
NC(N)=O,98.3
CC(=O)CCCCn1c(=O)c2c(ncn2C)n(C)c1=O,100.0
O=C(O)c1cccnc1Nc1cccc(C(F)(F)F)c1,100.2&98.2
CCCCCCCCCCCCCCC[C@H](O)[C@@H](N)CO,100.5
CC12CC3CC(C)(C1)CC(N)(C3)C2,94.8
